# Shh pathway inh: Sonic Hedgehog pathway inhibition; Shh-LIGHT2 Gli-luciferase reporter, 30 h; inhibition, % (concentration not given with the values); 22,000 compounds, 2.1% hits; AID 2313;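 active = replicate mean of 65% or more; inconclusive = mean lower but half the replicates past it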;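 note: pathway switched on by Shh-conditioned medium diluted 1 in 25 in low serum; 100 nL library stock added to about 40 µL; 0% = median of neutral wells and 100% = positive control level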
# YB-1 expression: YB-1 expression inhibition. U2OS, qRT-PCR YB-1 vs CDIP delta delta Cp, 16 h; stronger effect = higher value; zero = DMSO, each unit about twofold. delta delta Cp (YB-1 minus CDIP) (test concentration not listed). 30,000 compounds, 0.37% hits. AID 434959;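 active = delta delta Cp rounded down to an integer at or above 3, about 3 SD of DMSO wells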;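 note: higher means less YB-1 transcript or more CDIP transcript relative to DMSO; stock transfer was 100 nL into about 100 µL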
# MITF inhib: inhibitors of MITF | TRPM1 promoter luciferase, luminescence, 24 h | inhibition, % (test concentration not listed) | 37,000 compounds, 0.28% hits;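 active = most replicates at 85% or more, or half of them and the mean; inconclusive = half reach 85% but not the mean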;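 note: human melanocyte line stably carrying TRPM1 promoter luciferase reporter; 0% = vehicle wells and 100% = a positive control; the first replicate is given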
# PD-1 reverse act: activators reversing PD-1 mediated T-cell inhibition | 29,000 tested, under 10 active | AID 2316 | primary human CD4 T cells, PD-L1 beads, CellTiter-Glo 96 h | activation, % (concentration not given with the values);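 active = replicate mean of 50% or more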;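 note: 0% = median vehicle wells and 100% = positive control; 100 nL library stock added to about 50 µL; numbers are from one replicate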
# Starred values were filed as active, the others as inactive; ? = inconclusive; / = not tested or not shown. Only part of the results is shown, so the mix of outcomes need not match the whole.
SMILES,Shh pathway inh,YB-1 expression,MITF inhib,PD-1 reverse act
COc1ccc(NC(=O)Nc2ccc3c(c2)C(=O)N([C@@H](C)CO)C[C@@H](C)[C@H](CN(C)Cc2ccc(C(F)(F)F)cc2)O3)cc1,/,-0.12,48,-1.7
COc1ccccc1-c1cc(=O)c2ccccc2o1,32,-0.69,-73,1.3
C[C@H](CO)N1C[C@H](C)[C@H](CN(C)S(=O)(=O)c2cccs2)Oc2ccc(NS(=O)(=O)c3ccc(Cl)cc3)cc2C1=O,-41,0.058,20,/
C[C@@H]1CN([C@H](C)CO)C(=O)Cc2cc(NS(=O)(=O)c3cn(C)cn3)ccc2O[C@@H]1CN(C)S(=O)(=O)c1ccccc1,8,0.071,-25,0.9
CC1CCN(S(=O)(=O)c2cccc(C(=O)NC(C)(C)CO)c2)CC1,/,/,8,-0.5
COc1ccc(S(=O)(=O)Nc2ccc3c(c2)CC(=O)N([C@H](C)CO)C[C@@H](C)[C@@H](CN(C)S(=O)(=O)c2c(C)noc2C)O3)cc1,13,-0.12,-16,-0.3
C[C@H](CO)N1C[C@H](C)[C@H](CN(C)C(=O)Nc2cccc3ccccc23)Oc2ccc(NC(=O)Nc3cccc4ccccc34)cc2CC1=O,-29,-0.34,-4,/
CSc1nnc2c(n1)OC(C)N(C(C)=O)c1ccccc1-2 (stereo not drawn),-27,0.18,-13,0.1
CSc1ccccc1NC(=O)CN(c1cc(C(F)(F)F)ccc1Cl)S(C)(=O)=O,/,/,4,0.7
C[C@H](CO)N1C[C@H](C)[C@H](CN(C)CC2CC2)Oc2ccc(NC(=O)Cn3cnnn3)cc2C1=O,-20,-0.046,-2,0.9
C[C@H](CO)N1C[C@H](C)[C@H](CN(C)S(C)(=O)=O)Oc2ccc(NC(=O)Nc3ccc(C(F)(F)F)cc3)cc2C1=O,/,0.48,-1,/
C=CCn1c(CCn2c3ccccc3c3ccccc32)n[nH]c1=S,?,0.33,4,-2.8
C[C@@H]1CN([C@H](C)CO)C(=O)c2cccc(NC(=O)Nc3ccc(F)cc3)c2O[C@H]1CN(C)S(=O)(=O)c1cn(C)cn1,-23,0.31,-3,1.2
C[C@@H]1CN([C@H](C)CO)C(=O)c2cc(NS(=O)(=O)c3cn(C)cn3)ccc2O[C@@H]1CN(C)S(=O)(=O)c1cccs1,29,-0.27,1,/
C[C@H]1CN([C@@H](C)CO)C(=O)c2cc(NC(=O)Cc3cn(C)c4ccccc34)ccc2O[C@@H]1CN(C)Cc1ccccc1,/,0.39,16,-5.4
COc1ccc(-c2c(-c3ccc(OCc4cnn(-c5ccccc5)c4)c(C)c3O)n[nH]c2C)cc1,/,/,32,1.2
COc1cc(CNCc2ccccc2)cc(I)c1OCC#N,/,/,20,-1.8
CNC(=O)c1cc(C#N)c(SC)s1,/,-0.46,-20,0.1
CC(C)NC(=O)Nc1cccc2c1O[C@@H](CN(C)C(=O)Nc1ccc(F)cc1)[C@@H](C)CN([C@@H](C)CO)C2=O,-32,-0.16,6,-0.5
C[C@@H]1CN([C@H](C)CO)C(=O)Cc2cc(NC(=O)CCCN(C)C)ccc2O[C@H]1CN(C)S(=O)(=O)c1ccc(F)cc1,/,-0.36,-4,0.2
CC(=O)c1cccc(NC(=O)c2ccsc2NC(=O)COc2ccccc2)c1,/,/,-16,-0.6
COC(=O)c1cccc(NC(=O)CSc2nnc(-c3ccc(Cl)cc3)n2C)c1,/,/,-6,0.1
O=[N+]([O-])c1ccc(OCc2nc(-c3cccnc3)no2)cc1,/,/,-1,0.8
CC(C)NC(=O)Nc1ccc2c(c1)C(=O)N([C@H](C)CO)C[C@H](C)[C@@H](CN(C)C(=O)c1ccncc1)OCCCC[C@@H](C)O2,30,-0.36,4,1.8
CC1CCc2cc(F)cc3c(=O)c(C(=O)O)cn1c23 (stereo not drawn),-62,-0.18,1,/
C[C@@H]1CN([C@H](C)CO)C(=O)c2cc(NS(=O)(=O)c3ccc(F)cc3)ccc2O[C@H]1CN(C)S(=O)(=O)c1ccccc1,/,-0.35,0,1.3
O=C(OCc1ccc(Cl)cc1Cl)c1ccc2ccccc2n1,/,-0.29,-11,1.5
C[C@@H]1CN([C@H](C)CO)C(=O)Cc2cc(NC(=O)C3CC3)ccc2O[C@@H]1CN(C)Cc1ccc(C(F)(F)F)cc1,2,-0.49,-6,-4.2
O=C(c1ccccc1)N(c1ccccc1)c1ccccc1,50,0.08,13,-0.6
C[C@@H]1CN([C@@H](C)CO)C(=O)c2cc(NC(=O)Cc3ccccc3)ccc2O[C@@H]1CN(C)S(=O)(=O)c1ccccc1,10,0.11,-6,-0.7

# Ordered by number of heavy atoms (ascending): some entries from above.
SMILES,Shh pathway inh,YB-1 expression,MITF inhib,PD-1 reverse act
CC1CCc2cc(F)cc3c(=O)c(C(=O)O)cn1c23 (stereo not drawn),-62,-0.18,1,/
CSc1nnc2c(n1)OC(C)N(C(C)=O)c1ccccc1-2 (stereo not drawn),-27,0.18,-13,0.1
C[C@H](CO)N1C[C@H](C)[C@H](CN(C)CC2CC2)Oc2ccc(NC(=O)Cn3cnnn3)cc2C1=O,-20,-0.046,-2,0.9
C[C@H](CO)N1C[C@H](C)[C@H](CN(C)S(C)(=O)=O)Oc2ccc(NC(=O)Nc3ccc(C(F)(F)F)cc3)cc2C1=O,/,0.48,-1,/

# Single records, from the list above. Values in the order: Shh pathway inh | YB-1 expression | MITF inhib | PD-1 reverse act
# C[C@@H]1CN([C@H](C)CO)C(=O)c2cc(NS(=O)(=O)c3cn(C)cn3)ccc2O[C@@H]1CN(C)S(=O)(=O)c1cccs1 is entered as 29 | -0.27 | 1 | /
# C[C@H](CO)N1C[C@H](C)[C@H](CN(C)S(=O)(=O)c2cccs2)Oc2ccc(NS(=O)(=O)c3ccc(Cl)cc3)cc2C1=O is entered as -41 | 0.058 | 20 | /

# (cont.)
SMILES,Shh pathway inh,YB-1 expression,MITF inhib,PD-1 reverse act
C[C@H](CO)N1C[C@H](C)[C@H](CN(C)S(=O)(=O)c2ccc(Cl)cc2)Oc2ccc(NC(=O)CCC(F)(F)F)cc2C1=O,-13,-0.43,-9,-1.8
CC(C)NC(=O)N(C)C[C@@H]1Oc2ccc(NC(=O)NC3CCCCC3)cc2C(=O)N([C@@H](C)CO)C[C@H]1C,-19,-0.064,-2,1.3
C[C@@H]1CCCCO[C@H](CN(C)C(=O)CCC(F)(F)F)[C@@H](C)CN([C@H](C)CO)C(=O)c2cc(NC(=O)C3CCCCC3)ccc2O1,-5,0.31,-1,-0.1
CS(=O)(=O)N(CC(=O)NC1CC1)c1ccc(Cl)c(Cl)c1,/,/,-5,0.9
C/C=C1\[C@H](O[C@@H]2O[C@H](CO)[C@@H](O)[C@H](O)[C@H]2O)OC=C(C(=O)O)[C@H]1CC(=O)OCCc1ccc(O)cc1,-1,0.64,13,-0.8
C[C@H](CO)N1C[C@H](C)[C@@H](CN(C)Cc2ccc(C(=O)O)cc2)Oc2ccc(NC(=O)c3ccncc3)cc2C1=O,-15,0.23,-6,/
O=C(C1Cc2ccccc2C1)N1CCOCC1,-7,0.058,-19,2.9
Cc1ccc(S(=O)(=O)N(C)C[C@@H]2Oc3ccc(NC(=O)Nc4ccc(C(F)(F)F)cc4)cc3C(=O)N([C@@H](C)CO)C[C@H]2C)cc1,-8,0.58,-2,1.0
COc1cc(O)cc(C(=O)O)c1Oc1cc(C)cc(O)c1C(=O)O,-10,-0.15,9,-1.0
CS(=O)(=O)N(CC(=O)Nc1ccc(C(F)(F)F)cc1)c1ccccc1Cl,/,/,18,-2.5
CC(C)NC(=O)Nc1ccc2c(c1)C(=O)N([C@H](C)CO)C[C@H](C)[C@@H](CN(C)S(=O)(=O)c1ccccc1)O2,-27,-0.56,4,0.3
COc1ccc(C(CC(=O)O)NC(N)=O)cc1 (stereo not drawn),/,/,-2,1.1
Cc1sc2nc3c4ccccc4c(NCc4ccccn4)nn3c(=O)c2c1C,/,/,-22,-11
COc1ccc(NCC(O)Cn2ccc3ccccc32)cc1 (stereo not drawn),/,/,-7,0.2
Cc1ccc(NC(=O)CC(=O)Nc2ccc(C)cc2)cc1,-22,-0.09,-4,0.4
C[C@@H]1CN([C@H](C)CO)C(=O)c2cc(NC(=O)NC3CCCCC3)ccc2O[C@H]1CN(C)CC1CCCCC1,-14,0.51,9,1.2
O=C1Nc2c(ccc(Cl)c2Cl)C(=O)C1(F)c1ccccc1 (stereo not drawn),-7,-0.36,9,0.9
C[C@H]1CN([C@@H](C)CO)C(=O)Cc2cc(NS(=O)(=O)c3ccc(F)cc3)ccc2O[C@@H]1CN(C)C(=O)Nc1ccc2c(c1)OCO2,-18,-0.3,1,-0.2
C[C@@H]1CN([C@H](C)CO)C(=O)c2cccc(NS(=O)(=O)c3ccccc3)c2O[C@@H]1CN(C)Cc1ccc(C(F)(F)F)cc1,4,0.31,-9,-1.6
C[C@@H]1CN([C@H](C)CO)C(=O)c2cccc(NS(=O)(=O)c3ccccc3)c2O[C@H]1CN(C)C(=O)Nc1ccccc1,-33,-0.17,-4,0.0
CCc1c(O)cc(O)c2c1O[C@H](C)CC2=O,19,-0.055,3,-1.2
Cc1noc(C)c1NC(=O)N(C)C[C@@H]1Oc2c(NS(=O)(=O)c3ccc(F)cc3)cccc2C(=O)N([C@@H](C)CO)C[C@@H]1C,-9,-0.33,-8,2.9
Cc1cc(C)c(S(=O)(=O)N(CC(=O)Nc2ccccc2C(F)(F)F)C2CCCCC2)c(C)c1,/,/,5,0.4
CCOC(=O)c1c(-c2ccccc2)oc2ccc(O)c(CSCC(=O)Nc3ccccc3)c12,/,9.6*,20,-0.6
C[C@@H]1CN([C@@H](C)CO)C(=O)Cc2cc(NS(=O)(=O)c3ccc(Cl)cc3)ccc2O[C@@H]1CN(C)C(=O)Nc1cccc2ccccc12,-17,0.046,-13,0.6
C[C@H]1CN([C@@H](C)CO)C(=O)Cc2cc(NS(C)(=O)=O)ccc2O[C@@H]1CN(C)S(=O)(=O)c1ccc(F)cc1,7,-0.13,0,1.2
COc1cc(C2OCC3C(C)C=C(C)C2C3C)ccc1O (stereo not drawn),8,-0.15,14,-4.4
C[C@@H]1CN([C@H](C)CO)C(=O)c2cccc(NS(=O)(=O)c3cn(C)cn3)c2O[C@@H]1CN(C)C(=O)Nc1ccc(F)cc1,-26,0.17,-3,2.9
CC(C)NC(=O)Nc1ccc2c(c1)C(=O)N([C@H](C)CO)C[C@@H](C)[C@H](CN(C)C)O2,/,0.052,-3,2.4
C[C@H]1CN([C@@H](C)CO)C(=O)c2cccc(N(C)C)c2O[C@@H]1CN(C)S(=O)(=O)c1cn(C)cn1,-53,0.21,0,/
c1ccc(Sc2ncnc3c2oc2ccccc23)nc1,-59,-0.52,-45,-1.8
Cc1c(C)c(C)c(CSC2CC(=O)N(c3ccccc3)C2=O)c(C)c1C (stereo not drawn),1,0.027,-11,0.4
C[C@H]1CN([C@@H](C)CO)C(=O)c2cc(NC(=O)CCN3CCOCC3)ccc2O[C@@H]1CN(C)S(=O)(=O)c1ccccc1,/,0.099,-19,/
Cc1ccc(Cc2cncc(O)c2)cc1S(=O)(=O)O,/,/,-13,3.2
C[C@@H]1CN([C@@H](C)CO)C(=O)c2cc(NC(=O)Nc3ccccc3)ccc2O[C@H]1CN(C)Cc1ccc(-c2ccccc2)cc1,9,0.14,16,-2.0
C[C@@H]1CN([C@@H](C)CO)C(=O)c2cccc(NS(=O)(=O)c3ccc(F)cc3)c2O[C@@H]1CN(C)CC1CCCCC1,-20,0.57,2,0.3
CC(C)(c1ccccc1)c1cc(CN2CCOCC2)c(O)c(CN2CCOCC2)c1,/,0.48,-2,-2.1
Cc1nn(C(C)C(=O)Nc2cc(C(F)(F)F)ccc2Cl)c(C)c1[N+](=O)[O-] (stereo not drawn),/,/,4,-0.9
COc1ccc(S(=O)(=O)N(C)C[C@@H]2OCCCC[C@@H](C)Oc3ccc(NC(=O)c4ccccc4)cc3C(=O)N([C@H](C)CO)C[C@@H]2C)cc1,3,0.2,31,-3.4
COc1ccc(C(=O)CSc2nnc(-c3ccccc3O)n2C)cc1,/,/,5,0.3
CCOC(=O)c1c(N)sc2c(OCC)c(Br)ccc12,-13,-0.3,-57,-4.0
COc1ccc(S(=O)(=O)Nc2ccc3c(c2)C(=O)N([C@@H](C)CO)C[C@@H](C)[C@H](CN(C)C(=O)NC(C)C)O3)cc1,-23,-0.34,-2,0.9
C[C@H](CO)N1C[C@H](C)[C@@H](CN(C)S(C)(=O)=O)Oc2c(NC(=O)Nc3ccc(F)cc3)cccc2C1=O,11,0.17,-14,-0.6
C[C@@H]1CN([C@@H](C)CO)C(=O)c2cc(NS(=O)(=O)c3ccc(Cl)cc3)ccc2O[C@H]1CN(C)S(=O)(=O)c1ccc(Cl)cc1,5,-0.31,18,0.7

# From PubChem BioAssay
